# HSV replic up: enhancers of HSV replication in host cells, fold increase, host cell viability. maximum fold increase. AID 1956, 2009. actives 0.005% (n = 220,000). HSV replication augmentation in cells;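 active = peak rise of 1.5-fold or more in the series; inconclusive = self-fluorescent or not available for retest; tested in PC3 cells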;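 also: first round at 10 µM; read as green reporter fluorescence; hits show the peak of a series up to 25 µM; 1 = signal of infected wells without compound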
# Insulin prom inh: inhibitors of insulin promoter-driven GFP, primary screen, imaging, TRM-6 cells (human fetal islet line), eGFP reporter, cell count | reporter expression induced with tamoxifen | inhibition, % at 2 µM | actives 0.9% (n = 130,000) | AID 1273, 2008;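 active = inhibition above the mean plus 3 SD, with well images judged a real hit on visual review, cut at about 60% in these data, passing the limit was not always enough; inconclusive = inhibition over the cutoff but images rejected on review; inactive = inhibition not above the cutoff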
# PKD1 inh: inhibitors of human PKD1 kinase, biochemical, fluorescence polarization. AID 797, 2007. actives 0.056% (n = 200,000). inhibition, %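 (about 10 µM by stock and volumes)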. PKD1 kinase fluorescence polarization assay;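 active = inhibition of 50% or more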;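 also: controls were vehicle for no effect and a reference inhibitor for full effect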
# GALR2 agonist: GALR2 receptor agonists, primary screen, cell-based; Galanin receptor type 2 (Homo sapiens), O43603; activation, %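 (tested at 5 µM)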; AID 803, 2007; actives 0.48% (n = 140,000); GALR2-expressing cells, agonist activation read-out;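 active = above mean plus 3 SD of all compounds, about 5% in these data, not always enough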;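 also: 0% = vehicle buffer wells and 100% = reference agonist at full effect; tested in CHO reporter cells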
# Target sequence (O43603 whole entry, looked up): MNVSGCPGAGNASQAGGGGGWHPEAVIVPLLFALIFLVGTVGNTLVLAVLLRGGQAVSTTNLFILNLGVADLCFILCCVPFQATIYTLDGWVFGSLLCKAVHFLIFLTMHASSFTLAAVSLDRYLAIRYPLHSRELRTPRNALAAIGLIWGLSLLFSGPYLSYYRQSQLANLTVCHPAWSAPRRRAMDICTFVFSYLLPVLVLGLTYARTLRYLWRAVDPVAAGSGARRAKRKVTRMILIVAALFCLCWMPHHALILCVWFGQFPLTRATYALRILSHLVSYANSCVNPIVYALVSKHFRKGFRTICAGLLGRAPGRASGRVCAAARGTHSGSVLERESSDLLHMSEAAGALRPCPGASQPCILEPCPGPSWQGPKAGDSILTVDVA
# RGS16-Gao: modulators of RGS16 binding to Galphao, primary screen, biochemical, human proteins, multiplexed bead flow cytometry | Regulator of G-protein signaling 16 (Homo sapiens) + Guanine nucleotide-binding protein … | bead-based flow cytometry RGS16-Galphao binding, fluorescence; actives lie on both sides | binding response (% of control), % at 10 µM | actives 0.38% (n = 220,000) | AID 1441, 2008;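 active = below 25% or above 175%, edge rows of some plates excepted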;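 also: Galphao activated by GDP with aluminum fluoride before binding; 100% = wells without compound and 0% = beads without RGS; some results beyond the cut were filed as inactive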
# Target sequence (O15492 whole entry, looked up): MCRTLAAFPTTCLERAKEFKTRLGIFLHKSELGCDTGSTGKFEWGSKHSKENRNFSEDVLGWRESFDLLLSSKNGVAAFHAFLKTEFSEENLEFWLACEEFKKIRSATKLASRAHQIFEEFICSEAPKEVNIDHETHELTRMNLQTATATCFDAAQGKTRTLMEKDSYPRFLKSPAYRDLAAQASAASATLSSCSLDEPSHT
# Target sequence (P09471 whole entry, looked up): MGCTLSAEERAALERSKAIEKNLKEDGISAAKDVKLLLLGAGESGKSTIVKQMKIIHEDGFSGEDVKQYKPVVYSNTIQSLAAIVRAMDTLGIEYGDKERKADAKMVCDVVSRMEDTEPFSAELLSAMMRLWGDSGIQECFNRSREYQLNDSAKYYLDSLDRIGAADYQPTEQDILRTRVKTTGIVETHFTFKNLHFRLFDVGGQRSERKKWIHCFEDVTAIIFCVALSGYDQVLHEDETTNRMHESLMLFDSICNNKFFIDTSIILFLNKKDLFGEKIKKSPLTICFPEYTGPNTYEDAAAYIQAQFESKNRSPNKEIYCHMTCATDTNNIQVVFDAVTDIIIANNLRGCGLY
# Insulin prom inh cell count: recorded beside Insulin prom inh, whose call it bears; normalized cell count, %; measured here: cell count, toxicity; reference of the scale not given here;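 cells exposed to compound for 48 h; stained nuclei by imaging scaled within each plate; lower means fewer cells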
# HSV replic up primary fold: recorded beside HSV replic up, whose call it bears; fold increase; compound at 10 µM; measured here: primary screen fold increase 10 uM; tested in PC3 cells;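 GFP signal in the first replicate; 1 = infected wells without compound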
# Starred values were filed as active, the others as inactive; i = inactive; ? = inconclusive; / = not tested or not shown.
compound	HSV replic up	HSV replic up primary fold	Insulin prom inh	Insulin prom inh cell count	PKD1 inh	GALR2 agonist	RGS16-Gao
Cc1ccc(-c2nc3cc(Cl)ccc3o2)cc1	i	1.1	22	106	-3	-0.6	31
Cc1cc(NC(=O)c2sccc2C)n(-c2cccc(Cl)c2)n1	i	0.94	3	97	3	-0.3	100
COC(=O)c1ccc(C)c(NC(=O)CCc2ccc(OC)c(OC)c2)c1	i	1	/	/	1	-0.4	100
Nc1nonc1NC(=O)CSc1nc2ccccc2s1	i	0.85	-4	181	7	-1.5	104
COc1ccc(Br)cc1C(=O)NC(=S)Nc1ccc(Cl)c(C(=O)O)c1	i	0.89	0	72	1	/	103
CC(C)CN(C(=O)CSc1nnc(-c2ccco2)o1)c1c(N)n(Cc2ccccc2)c(=O)[nH]c1=O	i	0.95	/	/	0	/	102
CC(=C1C2C=CC1C1C(=O)NC(=O)C21)c1ccccc1 (configuration not stated)	i	1.1	-2	118	-7	0.1	101
CC(=O)NC1=NN(C(C)=O)C2(CCCC2)S1	i	0.94	-42	94	5	/	110
CC(=O)c1cc2c(cc1NC(=O)CN1CCOCC1)OCO2	i	0.97	25	207	1	-2.4	102
O=C(NCCC1=CCCCC1)C1CC(=O)N(C2CCCCCC2)C1 (configuration not stated)	i	0.97	-38	149	-2	-1.7	99
COc1ccccc1-n1cc(C(=O)c2cc(Cl)ccc2O)cc(C#N)c1=O	?	/	-3	60	-8	/	107
O=C(Nc1ccc(N2CCOCC2)cc1)c1ccc2c(c1)OCO2	i	0.99	-67	101	-7	/	117
CNc1ccccc1C(C)(C)c1cc(-c2cccc(Br)c2)no1	i	0.92	/	/	-4	/	100
Cc1ccc(S(=O)(=O)N2CCN(C(=O)CSc3nnc(C)c(=O)[nH]3)CC2)cc1	i	0.77	6	91	-7	-2.2	94
NC(=O)CC(NC(=O)Cc1ccc(Br)cc1)c1ccc(NCCc2ccc(F)cc2)c([N+](=O)[O-])c1 (configuration not stated)	i	0.91	/	/	/	/	99
CC(=O)c1ccccc1C(=O)NCc1cccnc1	i	1.1	23	73	5	-1.0	108
COc1cccc(N2CCN(C(=S)NCCc3ccccc3)CC2)c1	i	0.87	-11	139	8	-0.5	101
CCCC(=O)Nc1cccc(-c2nc3ccccc3c(=O)o2)c1	i	0.94	/	/	-11	/	100
CC1CCN(CCCCOc2cccc(Br)c2)CC1	i	1	33	146	17	-2.1	83
CC1CCCN(c2nc3c(c(=O)[nH]c(=O)n3C)n2CCSc2nc3ccccc3o2)C1 (configuration not stated)	i	0.95	/	/	-2	-1.5	106
O=C(c1ccc2c3c(cccc13)CC2)N1CCOCC1	i	0.91	/	/	-1	-3.6	100
CC(C)=CC(=O)Nc1ccc(Cl)cc1	i	1	/	/	-3	/	100
Cc1ccc(CS(=O)(=O)CCC(=O)NCCC(C)C)cc1	i	1	-11	88	1	-3.5	78
Cc1ccc2c(Cl)cc(Cl)c(OCC(=O)NC(C)(C)C)c2n1	i	0.98	/	/	-2	/	122
Cc1nnc(NC2=NCCCCC2)o1	i	0.92	/	/	24	-2.4	108
Clc1ccccc1-c1ccc(CN2CCN(c3ccccc3)CC2)o1	/	/	/	/	0	-1.6	74
Cc1csc(SCC(=O)NC(=O)Cc2ccccc2)n1	i	0.95	/	/	5	-0.7	106
CC1CN(S(=O)(=O)c2ccccc2)C(C)CN1S(=O)(=O)c1ccccc1 (configuration not stated)	i	1	-31	90	8	-0.2	101
CCN(CC)c1ncnnc1-c1ccccc1	i	1.1	-21	151	-11	-1.7	108
O=C(CSc1nc2ccccc2c(=O)n1Cc1ccco1)NCc1ccccc1	i	0.88	21	77	-10	0.3	/
CC(=O)N1CCC2(CC1)C(C#N)=C(N)Oc1n[nH]c(C(F)(F)F)c12	i	0.95	24	136	0	-3.2	104
COc1ccc(N2C3=C(C(=O)CC(C)(C)C3)C(c3ccccc3OC)C3=C2CC(C)(C)CC3=O)cc1	i	0.86	/	/	/	/	101
Cc1ccc2cc(/C=N/NC(=O)[C@H]3C[C@@H]3c3ccccc3)c(Cl)nc2c1	i	0.89	38	89	-3	-1.4	23
CC(=O)Oc1ccc(C(=O)[C@H]2[C@H]3C(=O)N(c4cccc5ccccc45)C(=O)[C@H]3[C@@H]3C=CC=NN32)cc1	i	1.1	51	101	-5	-0.5	99
CCCCn1c(N)c(N(CC)C(=O)/C=C/c2ccco2)c(=O)[nH]c1=O	i	0.95	/	/	-10	/	96
COc1cc(/C=N/O)cc(Cl)c1OC	i	0.95	7	144	4	0.3	106
CC(C)(/C=N/O)N(O)C=C1C=CC(=O)C=C1	i	0.95	/	/	/	/	101
COC(=O)Cn1cnc2c(nnn2-c2ccc(C)cc2)c1=O	i	0.83	16	60	-4	-2.3	-23
N#C/C(=C\c1ccc(-c2ccc(F)cc2)o1)C(=O)Nc1nc(-c2cccs2)cs1	i	1.2	/	/	-13	-2.1	80
O=c1c2c(-c3ccco3)csc2nc(SCc2cn3cccnc3n2)n1-c1ccccc1	i	0.72	/	/	7	2.8	89
CSCCC(NC(=O)C1CCC(C)CC1)C(=O)OCC(=O)c1ccc(Cl)cc1 (configuration not stated)	i	0.89	/	/	-6	0.7	108
CN1CCN(C(=O)Nc2ccc3c(c2)N(C)C(=O)c2ccccc2S3)CC1	i	1	-11	102	5	/	88
CCC(C)NCCOCCOc1ccc(F)cc1 (configuration not stated)	i	0.92	0	146	-2	-0.1	135
CCCn1c(C)cc(C(=O)COC(=O)c2nccnc2N)c1C	i	0.92	-14	124	2	/	102
COc1ccc(C(CCN2CCOCC2)c2c(O)cc(OC)cc2OC)cc1 (configuration not stated)	i	0.65	/	/	/	/	109
COc1ccc2[nH]c3nc(SCC(=O)NNC(=O)c4ccc(OC)c(OC)c4)nnc3c2c1	i	0.81	/	/	5	-3.2	99
CC(C)(C)c1ccc(C(=O)NNC(=S)NCc2ccco2)cc1	i	1	/	/	/	/	100
COc1ccc(NC(=O)c2nc3nc(C)cc(C(F)F)n3n2)cc1OC	i	0.8	71*	56*	13	-0.7	104
CC(C(=O)NCCN1CCOCC1)(c1ccccc1)c1ccccc1	i	1	/	/	0	/	100
CN1CCN(C(=S)c2ccc(Cl)cc2)CC1	i	0.99	30	136	-1	0.5	101
O=C(CC1C(=O)NCCN1Cc1ccoc1)NCCc1ccc(Cl)cc1 (configuration not stated)	i	0.99	7	69	-5	/	111
OC1(c2ccc(F)cc2)CSC(=Nc2cccnc2)N1Cc1ccco1 (configuration not stated)	i	1.1	-47	100	3	/	100
COc1ccc(/C=C/C(=O)Nc2ccc(OC)nc2)cc1	i	0.87	43	104	-4	-0.7	103
C/C(=N\NC(=O)c1cccc(S(=O)(=O)Nc2ccccc2Cl)c1)c1ccc(-n2ccnc2)cc1	i	0.9	20	122	1	-2.6	103
CSc1nsc(SC)c1C(=O)N1CCN(S(=O)(=O)c2ccc(C)cc2)C1C(C)C (configuration not stated)	i	1.1	-210	105	2	-0.5	103
O=C(Nc1cccc(-c2nc3ncccc3o2)c1)c1sc2cc(Cl)ccc2c1Cl	i	0.85	/	/	4	-2.4	105
COc1cc(NC(=O)Nc2ccc(Cl)c(Cl)c2)c(C(=O)O)cc1OC	i	0.98	/	/	/	/	95
CCCCCCCCCC[n+]1cccc2c3ccccc3ccc21	i	0.59	-107	49	1	/	105
CC(C)OP(=O)(c1ccc(N(C)C)cc1)C(O)c1ccccc1 (configuration not stated)	i	1	-19	147	-7	-2.6	98
COc1ccc(OC)c2c(C)c(C)[nH]c12	i	1.1	/	/	/	/	92

# Next section
compound	HSV replic up	HSV replic up primary fold	Insulin prom inh	Insulin prom inh cell count	PKD1 inh	GALR2 agonist	RGS16-Gao
Cc1ccc(NC(=O)OCc2cncs2)cc1	i	1	19	91	8	/	99
CC1CCN(CCC(=O)Nc2ccc3c(c2)OCCO3)CC1	i	0.97	/	/	-6	/	94
O=C(O)c1ccccc1CSc1ncccc1C(=O)O	i	0.78	/	/	-1	/	101
COc1ccc(-c2cn(-c3ccc(OC)cc3)c3[n+]2-c2ccccc2CC3)cc1	i	1	/	/	-7	-1.4	110
CCSC1=NCCN1S(=O)(=O)c1ccccc1	i	0.94	57	79	1	/	116
O=C(c1noc2c1CCCCC2)N1CCOCC1	i	0.97	/	/	-15	-0.5	106
NCCSC1CC(=O)N(Cc2ccc(F)cc2)C1=O (configuration not stated)	i	1	/	/	-2	/	99
O=C(CSc1nc2ccccc2c(=O)n1Cc1ccc(Cl)cc1)NCc1cccs1	i	0.9	7	104	-15	-1.1	97
Cc1nc(C)c(C(=O)O)s1	i	0.88	/	/	/	/	102
Cc1ccc(CNC(=O)CSc2n[nH]c(N)n2)cc1	i	0.91	-14	63	1	-1.1	96
CC1CC(C)(C)NC(=S)N1CCC(=O)N1CCc2ccccc21 (configuration not stated)	i	0.89	13	122	3	/	107
O=C(O)Cc1c(O)ccc2ccccc12	i	1.1	29	132	-5	-2.4	97
CCCCSc1nnc(CSc2nc3nc(C)cc(C)n3n2)o1	i	1.1	-14	115	-6	-1.5	97
N#CC1=C(N)C(C#N)(C#N)C(c2cccnc2)C2CN(C(=O)OCc3ccccc3)CC=C12 (configuration not stated)	i	1.1	-115	102	1	0.2	77
CCCCCCN1CC(C(=O)OCC)C(=O)C1=O (configuration not stated)	i	0.97	/	/	-6	-0.6	66
Cc1cc(C(=O)COc2ccc(C#N)cc2)c(C)n1-c1ccc2c(c1)OCO2	i	1	-4	73	-1	-0.7	99
COc1ccccc1CC(=O)NC1CCCc2ccccc21 (configuration not stated)	i	1.1	/	/	-1	/	104
CCNC(=O)CN(c1ccc(C)cc1)S(=O)(=O)c1ccc(SC)cc1	i	1	-25	75	16	-0.6	98
O=C(NNS(=O)(=O)c1ccc(Br)cc1)c1sccc1-n1cccc1	i	0.92	/	/	-5	/	101
CCCS(=O)(=O)N1CCC(C(=O)NC2CCC(C)CC2)CC1 (configuration not stated)	i	0.98	/	/	-6	-4.0	104
COc1cc(CNCc2cccs2)ccc1OCc1cccs1	i	0.95	/	/	-7	-4.0	103

# Some of the entries above in a different format.
# Value order – HSV replic up	HSV replic up primary fold	Insulin prom inh	Insulin prom inh cell count	PKD1 inh	GALR2 agonist	RGS16-Gao
> Cc1ccc(CNC(=O)CSc2n[nH]c(N)n2)cc1
  i	0.91	-14	63	1	-1.1	96
> CC1CC(C)(C)NC(=S)N1CCC(=O)N1CCc2ccccc21 (configuration not stated)
  i	0.89	13	122	3	/	107
> O=C(O)Cc1c(O)ccc2ccccc12
  i	1.1	29	132	-5	-2.4	97
> CCCCSc1nnc(CSc2nc3nc(C)cc(C)n3n2)o1
  i	1.1	-14	115	-6	-1.5	97
> N#CC1=C(N)C(C#N)(C#N)C(c2cccnc2)C2CN(C(=O)OCc3ccccc3)CC=C12 (configuration not stated)
  i	1.1	-115	102	1	0.2	77
> CCCCCCN1CC(C(=O)OCC)C(=O)C1=O (configuration not stated)
  i	0.97	/	/	-6	-0.6	66
> Cc1cc(C(=O)COc2ccc(C#N)cc2)c(C)n1-c1ccc2c(c1)OCO2
  i	1	-4	73	-1	-0.7	99
> COc1ccccc1CC(=O)NC1CCCc2ccccc21 (configuration not stated)
  i	1.1	/	/	-1	/	104
> CCNC(=O)CN(c1ccc(C)cc1)S(=O)(=O)c1ccc(SC)cc1
  i	1	-25	75	16	-0.6	98
> O=C(NNS(=O)(=O)c1ccc(Br)cc1)c1sccc1-n1cccc1
  i	0.92	/	/	-5	/	101
> CCCS(=O)(=O)N1CCC(C(=O)NC2CCC(C)CC2)CC1 (configuration not stated)
  i	0.98	/	/	-6	-4.0	104
> COc1cc(CNCc2cccs2)ccc1OCc1cccs1
  i	0.95	/	/	-7	-4.0	103

# Screens (PubChem)
